High-throughput results deposited in PubChem BioAssay by several laboratories.
Yeast UUG start = modulators of start codon recognition fidelity in yeast; S. cerevisiae UUG-firefly luciferase reporter, luminescence/redox ratio; activity score, % at 18.7 µM; 350,000 tested, 0.13% active; AID 602363;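 active = replicate mean at a twofold rise or more, about +100% in these data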;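 note: firefly luciferase made from a UUG start codon reports start codon fidelity; reporter light over untreated wells divided by growth signal over untreated wells; some hits fall short of that in this replicate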
Rce1 inhib = blocks yeast Ras-converting enzyme. Q03530. yeast membranes, quenched prenylated peptide cleavage fluorescence. calls only. 290,000 tested, 0.27% active. AID 2563;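 active = fall in fluorescence gain of 50% or more versus controls, with final raw signal at or below 3038400; inconclusive = same 50% fall but final raw signal above 3038400; inactive = fall in fluorescence gain under 50%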;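 note: plate controls were neutral control wells for no effect and wells lacking membranes for full effect; tested at 10 µM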
Target sequence (Q03530 whole entry, looked up): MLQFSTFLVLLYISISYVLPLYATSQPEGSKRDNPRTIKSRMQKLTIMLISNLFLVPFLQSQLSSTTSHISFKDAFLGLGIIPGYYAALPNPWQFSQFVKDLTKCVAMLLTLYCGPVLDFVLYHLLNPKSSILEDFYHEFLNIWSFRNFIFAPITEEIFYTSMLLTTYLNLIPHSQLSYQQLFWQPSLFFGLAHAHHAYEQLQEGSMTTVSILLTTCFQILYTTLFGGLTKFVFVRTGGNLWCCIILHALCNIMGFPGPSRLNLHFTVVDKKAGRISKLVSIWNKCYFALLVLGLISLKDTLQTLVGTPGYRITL
CSC inhib = blocks cancer stem cells. cancer stem cell-like cells viability, luminescence. inhibition, % at 7.5 µM. 300,000 tested, 1.1% active;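 active = mean at 75% or more and at least half the replicates too; inconclusive = mean and replicates disagree; tested in HMLE shEcad cells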;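 note: 0% = median of negative and 100% = median of positive control wells; the first replicate is given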
MT1-MMP act inh = inhibitors of human MT1-MMP activation; GFP/RFP ratio change, % at 20 µM; 360,000 tested, 0.061% active; P50281; HT1080 RFP-PRO-GFP cells, GFP/RFP ratio fluorescence, overnight; percent of plate control window, DMSO zero;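 active = GFP/RFP ratio change of at least 30% with cell ATP level not reduced by more than half and red fluorescence within 50% of control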; note: strong numbers were not always called active
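Material: RFP-PRO-GFP reporter HT1080 cells. Dosing: single-point 20 µM compound, 1% DMSO. Controls: DMSO and RFP-L50D-GFP cell wells. Timing: cells overnight before dosing, compound overnight, 37 °C, 5% CO2. Measure: GFP/RFP fluorescence ratio.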
eIF4H FP inh = inhibitors of RNA binding by human eIF4H; Q15056; eIF4H fluorescence polarization binding assay; inhibition, % at 35 µM; 290,000 tested, 0.94% active;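 active = 50% or more with normal probe brightness, or confirmed in later tests; inconclusive = above 50% with abnormal brightness, or retests that disagree; inactive = below 50% or failed in later tests; about a fifth of its hits are not listed in these tables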;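 note: calls also rest on retests at 20 µM and on dose response follow-up; 0% = protein and probe with vehicle and 100% = probe without protein; strong numbers were not always called active; many hits fall short of the cut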
PABP polyA inh = blocks human PABP binding to poly(A) RNA. 290,000 tested, 1% active. fluorescence polarization. inhibition, % at 35 µM. P11940. AID 2014;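 active = 50% or more with normal probe brightness, or confirmed in later tests; inconclusive = above 50% with abnormal brightness, or retests that disagree; inactive = below 50% or failed in later tests; about a fifth of its hits are not listed in these tables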;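 note: calls also rest on retests at 20 µM and on dose response follow-up; controls were probe without protein and protein plus probe with vehicle; some compounds called inactive have numbers as strong as hits; many hits fall short of the cut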
HIV Env fusion = blocks HIV Env-driven cell-cell fusion | 360,000 tested, 1.1% active | HeLa-JRFL Env/CEM21 cell fusion, luciferase | inhibition, % at 12.3 µM | AID 651610;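 active = mean replicate inhibition score of at least 50 and every replicate individually at or above 50; inconclusive = only one of the two criteria met; inactive = mean below 50 and not all replicates reaching 50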;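 note: 0% = plate neutral controls and 100% = maraviroc near 300 nM; one replicate is shown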
eIF4H FP inh retest = further read-out of eIF4H FP inh, marked with its call; inhibition, %; compound at 20 µM; confirmation average;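 mean of two retest wells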
PABP polyA inh retest = also measured in PABP polyA inh; calls as there; inhibition, %; compound at 20 µM; confirmation repeats;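 mean of two retest wells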
MT1-MMP act inh RFP = recorded beside MT1-MMP act inh, whose call it bears; RFP signal change, %; measured here: RFP expression control read;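 0 = vehicle wells; hits needed this value within 50% of zero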
Starred values were filed as active, the others as inactive; i = inactive; ? = inconclusive; · = not tested or not shown; & = joins results of further samples; [ ] = another dose, or the depositor's remark. These rows are one share of the data; the hit share may differ from the screen's.

SMILES	Yeast UUG start	Rce1 inhib	CSC inhib	MT1-MMP act inh	MT1-MMP act inh RFP	eIF4H FP inh	PABP polyA inh	HIV Env fusion	others
COc1ccccc1C1(CC(=O)N2CCOCC2)CCOC(C(C)C)C1 (stereo not drawn)	20.4	i	·	-1.1	-4.2	0.8	1.2	2.8
NCCOc1cnn(-c2ccccc2Cl)c(=O)c1Cl	·	i	-8.1	1.5	8.1	3.7	1.9	·
Brc1cccc(Cn2c(-c3cncs3)nc3ccccc32)c1	-15.5	i	0.1	-4.6	-5.5	-4.7	-1.4	36.0
O=C1c2oc3ccc(F)cc3c(=O)c2C(c2ccc(F)cc2)N1CCCN1CCOCC1 (stereo not drawn)	3.6	i	-17.6	0.7	6.9	·	·	-10.4
CCN(CC(=O)Nc1c(F)cccc1F)C(=O)c1cc(C)nc2ccccc12	·	i	-3.3	-2.0	2.4	·	·	5.6
Cc1ccc(S(=O)(=O)N2CCC(=O)N(CCOCc3ccccc3C)CC2)cc1	-15.2	i	2.3	2.1	-3.1	4.3	-4.0	26.1
CCOC(=O)c1cccc(C2=CC(=O)C[C@H](c3ccc(Cl)cc3)C2)c1	-13.2	·	76.8*	4.3	0.3	·	·	-4.3
Cc1cc(C)n(-c2nc3c(c(=O)[nH]c(=O)n3C)n2CC(O)COc2ccccc2C)n1 (stereo not drawn)	-3.0	i	-15.1	0.2	-0.6	-4.4	-6.3	-29.7
CCOC(=O)c1c(C)[nH]c(C(=O)COC(=O)CCC2CCCC2)c1C	2.6	i	·	·	·	-11.4	-10.4	?
COc1ccc(CNC(=O)C(=O)NCC2CCCN2S(=O)(=O)c2cccs2)cc1 (stereo not drawn)	0.3	i	-4.9	2.3	0.8	·	·	-3.7
COc1ccc(S(=O)(=O)N2CCN(Cc3cccc(Cl)c3)CC2)cc1	-11.0	i	-2.6	0.0	-1.9	-5.3	-0.7	·
CC(NS(=O)(=O)c1cccc(Cl)c1)C(=O)N(C)C1CCN(C)CC1 (stereo not drawn)	·	i	-2.5	-4.5	-3.3	3.9	-3.3	-9.5
CCOc1cc(N2CCOCC2)c(OCC)cc1NC(=O)c1ccccc1C	·	i	7.8	3.2	-1.3	0.6	-10.1	3.9
Cc1nn(C)c(C)c1S(=O)(=O)NCc1cccs1	-13.8	i	-11.4	-2.4	3.1	-8.1	-4.8	·
COc1ccc2cc3cc(C(=O)NCC4CCCO4)oc3nc2c1 (stereo not drawn)	-13.5	i	-2.8	7.9	2.0	-2.7	8.4	-48.2
COc1ccccc1C(=O)N/C(=C\c1ccccc1)C(=O)NC(Cc1ccccc1)C(=O)O (stereo not drawn)	-8.4	i	7.1	0.2	2.8	-4.2	3.3	-5.2
CCOc1ncccc1C(=O)OCC(=O)Nc1cccc(S(N)(=O)=O)c1	7.8	i	-10.9	0.8	2.8	14.3	-18.4	4.5
O=C(COC(=O)CSc1ccc2ccccc2c1Br)NC1CC1	-6.2	i	-1.8	-1.0	-0.4	0.8	-1.1	2.4
Cc1sc2ncnc(OCC(=O)c3ccc(S(=O)(=O)N4CCCC4)cc3)c2c1C	-15.0	·	-15.3	0.9	-6.1	-10.2	-16.6	10.9
COc1cc(C(=O)OCC(=O)N2c3ccccc3NC(=O)C2(C)C)ccc1OCC(C)C	·	i	6.2	4.3	-8.4	·	·	18.4
O=C(CN1C(=O)C2C3C=CC(C3)C2C1=O)Nc1ccc(S(=O)(=O)Nc2nccs2)cc1 (stereo not drawn)	·	i	-12.9	-2.4	-0.5	-0.5	7.3	15.4
Cc1ccc(NC(=O)CN(C)Cc2ccc(Cl)cc2)cc1	·	i	5.2	2.6	4.2	-3.7	2.4	9.8
CN1C2CCC1/C(=C/c1cccn1C)C(=O)/C2=C\c1cccn1C	41.0	i	-3.6	-157.0	6.4	60.7	-1.7	23.7	eIF4H FP inh retest=-13.6;PABP polyA inh retest=2.4
COc1ccc(N(CC(=O)Nc2cccc3ccccc23)S(C)(=O)=O)cc1	-9.9	i	0.3	0.1	3.2	-2.4	-3.7	7.6
COc1cccc(C(=O)N(C)C(C)c2nc3ccccc3s2)c1 (stereo not drawn)	1.2	i	-4.8	-1.7	-1.7	-7.5	2.4	-4.2
O=C(NCc1ccco1)[C@@H]1CSC2c3ccccc3C(=O)N21 (stereo partly drawn)	-13.8	i	-11.7	0.9	3.1	12.7	11.5	·
CC(C)(C)c1cc(=O)n(-c2ccccc2)[nH]1	·	·	-11.5	0.3	5.2	-4.3	3.4	17.4
O=S(=O)(NC(=S)c1ccccc1)c1ccccc1	·	i	3.0	-1.0	5.2	·	·	-2.7
O=S(=O)(NCC(c1cccnc1)N1CCOCC1)c1ccccc1 (stereo not drawn)	·	i	·	1.0	6.6	9.8	-3.9	-3.9
Cc1cccc2cc(CN(Cc3cccs3)Cc3nnnn3Cc3ccccc3)c(=O)[nH]c12	·	i	-15.4	-19.0	-18.8	-2.4	-2.1	34.8
CSCC[C@H](NC(=O)C1CCC(CNC(=O)[C@@H]2CCCN2C(=O)OC(C)(C)C)CC1)C(=O)O (stereo partly drawn)	-15.3	i	1.7	1.7	1.9	-3.1	-6.7	-7.9
COc1ccc(S(=O)(=O)Nc2ccc3c(c2)CC(=O)N([C@H](C)CO)C[C@H](C)[C@H](CN(C)C(=O)Nc2ccc4c(c2)OCO4)O3)cc1	-2.2	·	-14.9	-0.7	3.0	·	·	-13.0
Cc1ccc(Cl)cc1N1CCN(C(=O)Cn2ccc3ccccc3c2=O)CC1	-2.8	i	-4.1	-2.2	-7.8	-2.0	-2.6	-31.6
Cc1c2cn[nH]c(=O)c2c(C)n1-c1ccccc1	-9.6	i	·	-3.9	-3.8	-15.9	11.1	-17.7
COC(=O)c1ccc(N2CCC(C)CC2)c(N)c1	·	i	3.0	9.9	2.0	-7.5	16.7	-37.7
COc1cc(C(=S)N2CCC(Cc3ccccc3)CC2)ccc1OCC(N)=O	-20.6	i	-12.3	-2.1	-2.6	-13.9	3.8	-4.4
c1ccc(-c2cc(-c3ccncc3)nc3ccc4ccccc4c23)cc1	·	i	102.4*	-53.9	-39.0	-3.5	1.7	·
CCOc1cc(/C=N/NC(=O)c2ccc(N(C)S(=O)(=O)c3ccccc3)cc2)ccc1OC	-15.4	i	·	5.7	-2.6	-11.8	3.5	7.8
CC/C(=N\NC(=O)CSCc1ccc(Cl)cc1)c1ccc2c(c1)OCCO2	-28.0	i	-12.8	0.3	1.4	2.7	-1.0	·
NC(=O)CCC1NC(=S)N(Cc2ccccc2)C1=O (stereo not drawn)	·	i	-3.5	-0.3	3.0	-4.9	-3.0	14.5

Entries shown so far that contain two or more sulfur atoms:
SMILES	Yeast UUG start	Rce1 inhib	CSC inhib	MT1-MMP act inh	MT1-MMP act inh RFP	eIF4H FP inh	PABP polyA inh	HIV Env fusion	others
COc1ccc(CNC(=O)C(=O)NCC2CCCN2S(=O)(=O)c2cccs2)cc1 (stereo not drawn)	0.3	i	-4.9	2.3	0.8	·	·	-3.7
Cc1nn(C)c(C)c1S(=O)(=O)NCc1cccs1	-13.8	i	-11.4	-2.4	3.1	-8.1	-4.8	·
Cc1sc2ncnc(OCC(=O)c3ccc(S(=O)(=O)N4CCCC4)cc3)c2c1C	-15.0	·	-15.3	0.9	-6.1	-10.2	-16.6	10.9
O=C(CN1C(=O)C2C3C=CC(C3)C2C1=O)Nc1ccc(S(=O)(=O)Nc2nccs2)cc1 (stereo not drawn)	·	i	-12.9	-2.4	-0.5	-0.5	7.3	15.4
O=S(=O)(NC(=S)c1ccccc1)c1ccccc1	·	i	3.0	-1.0	5.2	·	·	-2.7

Reprinted at random: two entries already listed.
SMILES	Yeast UUG start	Rce1 inhib	CSC inhib	MT1-MMP act inh	MT1-MMP act inh RFP	eIF4H FP inh	PABP polyA inh	HIV Env fusion	others
Cc1cccc2cc(CN(Cc3cccs3)Cc3nnnn3Cc3ccccc3)c(=O)[nH]c12	·	i	-15.4	-19.0	-18.8	-2.4	-2.1	34.8
CSCC[C@H](NC(=O)C1CCC(CNC(=O)[C@@H]2CCCN2C(=O)OC(C)(C)C)CC1)C(=O)O (stereo partly drawn)	-15.3	i	1.7	1.7	1.9	-3.1	-6.7	-7.9

(list continues)
SMILES	Yeast UUG start	Rce1 inhib	CSC inhib	MT1-MMP act inh	MT1-MMP act inh RFP	eIF4H FP inh	PABP polyA inh	HIV Env fusion	others
CCC(=O)N1CCc2cc(Br)cc(S(=O)(=O)N3CCC(C(=O)NC(C)(C)C)CC3)c21	-17.9	i	·	1.3	-0.4	23.4	35.2	21.5
COc1ccc(CN(C)C(=O)c2cc(-c3ccc(C)cc3C)nc3ccccc23)c(OC)c1OC	-9.3	i	27.0	-8.9	-5.1	-3.8	-1.4	33.1
OC(C#CCCN1CCCCC1)(c1ccccc1)c1ccccc1	-3.4	i	·	-7.2	-2.9	2.5	10.1	-3.9
Cc1cccc(OCC(=O)Nc2ccc(C(=O)c3ccc(C(=O)O)cc3)cc2)c1	-14.0	i	-12.0	3.0	3.8	-2.0	25.5	?
CCSc1nc2sc3c(c2c(=O)n1CC)CC(C)(C)OC3	-2.1	i	62.1	1.5	-2.4	-8.4	1.1	·
CCO[C@@H]1OC(C(=O)N2CCN(Cc3ccc4c(c3)OCO4)CC2)=C[C@H](C)[C@H]1CCCO	-10.7&-15.1	i	-6.2	2.0	5.7	-4.4	-2.7	-2.8[16.7 µM]
COc1ccccc1NC(=O)CCNS(=O)(=O)c1ccc2c(c1)CC(C)N2C(=O)C1CC1 (stereo not drawn)	5.4	i	-14.7	-0.1	-2.7	-1.6	3.5	6.2
Cc1onc(-c2ccccc2)c1C(=O)Nc1ccccc1N1CCOCC1	-0.1	i	8.4	2.1	-0.7	-1.3	-8.2	31.6
COc1ccc(NC(=O)c2cc(-c3cc(F)ccc3OC)n[nH]2)cn1	1.2	·	·	1.2	3.3	·	·	-18.7
O=C(COc1ccccc1-c1ccccc1)NCc1cccc(Cl)c1	5.8	i	37.0	-5.5	-22.2	-4.5	-3.3	26.7
O=S(=O)(Nc1ccc2c(c1)OCCO2)c1ccc(F)cc1	-13.2	i	10.7	4.7	3.5	-8.2	-1.4	-33.5
CCOc1ccc(Br)cc1S(=O)(=O)Nc1nc(CN2CCOCC2)nc2sc(C)c(C)c12	·	i	7.7	-6.6	-5.1	-5.2	-13.1	·
CC1CCCCN1CCCNC(=O)C1CCN(c2nnc(-n3cccc3)s2)CC1 (stereo not drawn)	-1.5	i	-29.4	4.0	4.3	-8.0	-7.0	-1.2
O=C(C1COc2ccccc2O1)N1CCN(c2ccccn2)CC1 (stereo not drawn)	-8.8	i	-1.0	1.2	3.0	·	·	-6.1
Cc1oc(C(=O)O)cc1COc1ccc2c3c(c(=O)oc2c1)CCC3	-4.0	i	-6.8	4.9	-3.6	24.8	22.4	-26.1
Nc1nnc2c(C(F)(F)F)nc3ccccc3n12	-12.2	i	-12.9	-1.0	0.9	-16.6	-3.2	-3.5
Cc1noc(C)c1COC(=O)c1cccnc1Cl	-2.7	i	-2.5	0.1	5.6	12.0	-1.3	17.9
CC(C)(C)c1ccc(C(=O)N2CCN(Cc3ccccc3)CC2)cc1	-5.8	i	43.7	-0.8	-0.7	-1.1	-0.9	-3.8
Fc1ccc(Nc2c(-c3ccco3)nc3ccccn23)cc1	·	i	-4.5	10.5	4.8	85.3	6.2	22.2	eIF4H FP inh retest=-3.8;PABP polyA inh retest=7.0
